Screens from PubChem.
D2 agonist = Beta-Arrestin HTS for Positive Allosteric Modulators of the Human D2 Dopamine Receptor: Agonists. hit rate 0.084% among 360,000. DiscoveRx PathHunter D2 beta-arrestin, luminescence, 90 min; 100% = 57 uM dopamine signal. D(2) dopamine receptor (Homo sapiens), P14416. activation, % (test concentration not listed). AID 624465, 2012; in the data active = activation above about 40%; inconclusive = about 15% to 40%; inactive = below about 15%; further: compound concentration not given in the record; the text of the record calls up to 30% inactive
Target sequence (P14416 whole entry, looked up): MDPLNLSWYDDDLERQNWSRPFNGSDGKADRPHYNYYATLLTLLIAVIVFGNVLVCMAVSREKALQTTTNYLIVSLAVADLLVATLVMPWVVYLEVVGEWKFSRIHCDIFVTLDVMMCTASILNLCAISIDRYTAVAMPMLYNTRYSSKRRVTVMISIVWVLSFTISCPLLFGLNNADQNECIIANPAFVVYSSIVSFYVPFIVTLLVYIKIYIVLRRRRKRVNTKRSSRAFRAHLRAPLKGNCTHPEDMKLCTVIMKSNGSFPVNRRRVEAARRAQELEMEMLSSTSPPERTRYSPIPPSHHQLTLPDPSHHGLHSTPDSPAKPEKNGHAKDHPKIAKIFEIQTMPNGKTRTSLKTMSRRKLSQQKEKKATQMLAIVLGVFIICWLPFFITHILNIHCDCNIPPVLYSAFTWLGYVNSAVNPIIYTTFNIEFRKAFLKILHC
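DiscoveRx PathHunter D2 beta-arrestin cells (2,100/well) attached overnight, then compound-stimulated 90 min at 37 C in HBSS/10 mM HEPES/0.1% Tween-20 buffer; beta-galactosidase complementation read by luminescence after 1 h at ambient temperature. Dopamine 57 uM final (EC100) as control.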
TRPML1 inh = qHTS for Inhibitors of the Human Mucolipin Transient Receptor Potential 1 (TRPML1); activity change, negative = inhibition, % (concentration not given with the values); hit rate 0.02% among 390,000; AID 624415, 2012; Mucolipin-1 (Homo sapiens), Q9GZU1; TRPML1-inducible cells, Ca2+ dye fluorescence, FDSS; stronger effect = lower value; inhibition of EC80 agonist-evoked calcium signal; in the data active means activity change below about -50%; inconclusive means about -30% to -50%; inactive means above about -30%;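 further: stimulus is agonist 54-4 at its EC80 concentration; on the % scale 0 is the no-effect control and ±100 the full control effect; compound concentration not given in the record; the text of the record puts the active cut at -80%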
Target sequence (Q9GZU1 whole entry, looked up): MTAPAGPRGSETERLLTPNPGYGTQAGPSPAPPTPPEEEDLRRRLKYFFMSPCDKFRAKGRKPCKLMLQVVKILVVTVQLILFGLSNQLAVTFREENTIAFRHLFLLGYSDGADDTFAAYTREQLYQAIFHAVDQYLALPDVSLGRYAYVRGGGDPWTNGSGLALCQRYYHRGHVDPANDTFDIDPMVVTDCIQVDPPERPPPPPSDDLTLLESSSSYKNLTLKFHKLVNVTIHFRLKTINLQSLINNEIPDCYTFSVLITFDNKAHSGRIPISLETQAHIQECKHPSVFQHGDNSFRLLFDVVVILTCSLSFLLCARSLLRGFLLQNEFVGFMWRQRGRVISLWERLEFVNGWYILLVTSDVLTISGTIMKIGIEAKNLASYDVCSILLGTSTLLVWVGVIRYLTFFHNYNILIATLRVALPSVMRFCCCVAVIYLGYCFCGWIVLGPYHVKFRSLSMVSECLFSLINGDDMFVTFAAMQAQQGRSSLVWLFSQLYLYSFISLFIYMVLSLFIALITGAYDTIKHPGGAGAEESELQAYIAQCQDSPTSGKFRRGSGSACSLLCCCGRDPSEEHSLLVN
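TRPML1-DL cells, Tet-induced overnight (~16 h, 37 °C) at 1,500 cells/well, were loaded with Ca8 no-wash dye plus quencher for 45-90 min at room temperature. Compounds were pinned during FDSS kinetic reading; agonist 54-4 at EC80 (4 uM final) then added.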
TRPML1 agonist = qHTS for Agonists of the Human Mucolipin Transient Receptor Potential 1 (TRPML1). hit rate 0.12% among 410,000. AID 624414, 2012. TRPML1-expressing cells, Ca2+ dye fluorescence, FDSS; host cell line not named in the record; reference of the full effect not given here. activation, % (test concentration not listed). Mucolipin-1 (Homo sapiens), Q9GZU1; in the data active = activation above about 50%; inconclusive = about 30% to 50%; inactive = below about 30%; further: 0% is about no effect; the text of the record puts the active cut at 80%
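Agonist activity was taken from a 110 s kinetic Ca2+ dye read on the FDSS after pinning compounds onto TRPML1-DL cells. The cells were seeded at 1,500/well with Tet inducer, incubated about 16 h, then dye-loaded at room temperature.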
PINK1 expr mod = A Quantitative High throughput Screen to Identify Chemical Modulators of PINK1 Expression. AID 624263, 2012. hit rate 0.2% among 410,000. PINK1 immunofluorescence, high-content cytometry, 24 h. Potency, µM (highest dose often 76.6 µM), inactives show top-dose activation (PINK1 increase), most hits filed as activators; active = well fitted activation curve with a large enough effect; inconclusive = small, poorly fitted or top-dose-only effect; inactive = flat fitted curve, though single readings scatter; cell line not stated here;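 further: potency means the concentration at half of the fitted maximal effect; % of control where 0% means no effect; nearly all actives have a fitted effect of over 65% in size; a mitochondrial uncoupler was the plate control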
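Fluorescence from anti-PINK1 antibody, together with nuclear and cell stains, was scanned on a laser-scanning cytometer. Before staining, stable-line cells were incubated 24 hours with compounds at 5 concentrations; primary antibody 12 h at 10 degrees C.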
D2 PAM = Beta-Arrestin HTS for Positive Allosteric Modulators of the Human D2 Dopamine Receptor: Potentiators; hit rate 0.23% among 360,000; DiscoveRx D2 beta-arrestin cells, luminescence, 90 min; 100% = 57 uM dopamine signal; potentiation, % (no concentration beside the values); D(2) dopamine receptor (Homo sapiens), P14416; active = potentiation of 50% or more; inconclusive = 30% to 50%; inactive = 30% or less;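 further: compound concentration not given in the record; tested on top of an EC20 dose of dopamine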
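D2 cells co-treated with compound plus 50 nM dopamine (EC20) for 90 min at 37 deg C to detect potentiation. Beta-arrestin recruitment was read as enzyme-fragment luminescence after 1 h at ambient temperature. Full response was set by 57 uM dopamine.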
Six1-Eya2 inh = qHTS Assay for Inhibitors of the Six1/Eya2 Interaction | activity change, % (no concentration beside the values) | hit rate 0.56% among 360,000 | AlphaScreen GST-Six1/His-Eya2 binding, biochemical; stronger effect = lower value; control for the full effect not named in the record | Homeobox protein SIX1 (Homo sapiens) + Protein phosphatase EYA2 (Homo sapiens), …; in the data active = activity change below about -65%; inconclusive = about -30% to -65%; inactive = above about -30%; further: on the % scale 0 is the no-effect control and ±100 the full control effect; compound concentration not given in the record
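Compounds are tested against tagged Six1 and Eya2 proteins bridged by glutathione donor and nickel acceptor beads; after a one-hour incubation at 37 °C without light, AlphaScreen emission is recorded.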
Starred values were filed as active, the others as inactive; ? = inconclusive; nt = not tested or not shown; & = joins results of further samples; [ ] = remark or other dose.

SMILES	D2 agonist	TRPML1 inh	TRPML1 agonist	PINK1 expr mod	D2 PAM	Six1-Eya2 inh
O=C(Nc1ccccc1-c1ccccc1)c1cccs1	0.9	8	2.3	-0.8%	-6	5
COC(=O)c1ccccc1-n1c(C)nc(=O)c(-c2ccccc2)c1C	3.4	-3	2.0	0.2%	-7	4
O=C(O)CCn1c2c(c3ccccc31)CCCC2	-2.8	1	-0.5	-1.2%	-6	-2
Cc1ccc(S(=O)(=O)N2CCOCC2)cc1C(=O)N1CCN(c2ccc(C(F)(F)F)cn2)CC1	-0.2	2	0.2	2.1%	-3	1
COc1cccc(NC(=O)N(C)C[C@H]2Oc3ncc(Br)cc3C(=O)N([C@H](C)CO)C[C@H]2C)c1	-7.8	6	-0.5	-0.3%	1	1
S=C(NCCc1ccccc1)NCc1cccs1	-2.2	28	0.7	1.0%	-6	-3
Cc1ccc2oc(-c3ccccc3)nc2c1	-4.8	8	-0.8	-1.7%	-23	44
O=C(NC(Cc1ccccc1)C(=O)N1CCN(c2ccc(F)cc2)CC1)c1ccccc1 (stereo not given)	-0.9	23	-0.4	0.9%	-3	-6
Cc1csc(SCC(=O)Nc2ccc(CC#N)cc2)n1	-2.8	-11	-0.5	-0.2%	-10	-18
O=S1(=O)CCC(NS(=O)(=O)c2ccc3ccccc3c2)C1 (stereo not given)	3.4	5	0.4	0.2%	-4	8
COc1ccc(OC)c(/C=C/C(=O)OCC(=O)NC2CCCCCCC2)c1	-2.0	14	1.7	-0.9%	2	17
Cc1occc1-c1nnc(SCC(=O)N2CCOCC2)o1	-2.6	4	0.1	-0.6%	-8	-1
COc1cc(C(=O)OCC(=O)c2ccccc2)cc2c1OCCO2	-2.7	-9	-0.6	0.2%	-3	27
CCc1ccc(CN(C(=O)c2oc3ccccc3c2C)C2CCS(=O)(=O)C2)cc1 (stereo not given)	0.1	13	-0.5	0.5%	1	-7
CC(C)[C@@H](C(=O)NC1CCN(Cc2ccccc2)CC1)N1C(=O)N2CCc3c([nH]c4ccccc34)[C@@]2(C)C1=O	-5.5	nt	nt	3.3%	-74	-26
CCCCOc1ccc(NC(=O)Nc2nnc(C)s2)cc1	-7.0	-3	0.7	1.7%	3	-2
CCOC(=O)c1ccc2c(c1)N(Cc1ccc(F)cc1Cl)C(=O)c1ccccc1S2(=O)=O	nt	44	3.1	3.3%	nt	nt
COc1ccc(C(=O)/C=C/c2ccccc2C(F)(F)F)cc1	-0.1	37	2.5	-1.5%[38.3 µM]	-19	1
O=C(N/N=C/c1cccnc1)c1ccc(Cl)c(Cl)c1	-4.3	8	-0.5	2.5%	-9	-18
CC(c1ccccc1)N1CC(C(=O)Nc2ccc(F)cc2)CC1=O (stereo not given)	-6.3	12	0.2	-0.5%	-9	-5
Cc1cc(NC(=O)c2cc(-c3ccncc3)nc3ccccc23)ccc1Br	1.9	-4	1.2	-1.1%	-12	-11
Nc1ccc(S(=O)(=O)Nc2ccnn2-c2ccccc2)cc1	-4.0	-1	-0.3&-0.1&-0.4	-0.9%&-0.5%&2.8%	-2	9
Cc1cccc(OCC(=O)OCC(=O)Nc2sccc2C(N)=O)c1	-1.1	0	0.9	-0.7%	0	-10
CCCCC1CCC(/C(N)=N/O)CC1 (stereo not given)	2.3	1	-1.3	0.4%	23	-2
COc1cccc(CNC(=O)c2n[nH]c3ccccc23)c1	1.1	3	0.4	0.1%	-6	-1
COc1ccc(OC)c(NC(=O)CN(C)S(=O)(=O)c2ccc(Cl)cc2)c1	-0.3	27	4.2	-0.1%	-8	-8
Cc1ccc(OCc2nc(-c3ccc(C(=O)N4CCN(c5ccccc5F)CC4)cc3)oc2C)cc1	nt	18	1.9	0.1%	nt	nt
COc1ccc(C(=O)N2CCC(CCC(=O)Nc3cccc(C)c3)CC2)cc1	-4.6	29	1.3	3.3%	-17	0
CCOCCCn1c(SC(C)C(=O)NCC2CCCO2)nc2sc(C)c(C)c2c1=O (stereo not given)	1.2	4	-0.6	1.3%	-2	-2
COc1ccc(OC)c(NC(=O)Cc2coc3ccc(C)cc23)c1	3.1	6	3.4	?	-6	-9

3 entries picked at random from the list so far:
SMILES	D2 agonist	TRPML1 inh	TRPML1 agonist	PINK1 expr mod	D2 PAM	Six1-Eya2 inh
Cc1cccc(OCC(=O)OCC(=O)Nc2sccc2C(N)=O)c1	-1.1	0	0.9	-0.7%	0	-10
CCOCCCn1c(SC(C)C(=O)NCC2CCCO2)nc2sc(C)c(C)c2c1=O (stereo not given)	1.2	4	-0.6	1.3%	-2	-2
Nc1ccc(S(=O)(=O)Nc2ccnn2-c2ccccc2)cc1	-4.0	-1	-0.3&-0.1&-0.4	-0.9%&-0.5%&2.8%	-2	9

(list continues)
SMILES	D2 agonist	TRPML1 inh	TRPML1 agonist	PINK1 expr mod	D2 PAM	Six1-Eya2 inh
COc1cc(OC)cc(-c2c(-c3ccc(C(C)=O)cc3)c3cc(-c4cccc5[nH]ccc45)ccc3n2C)c1	-3.0	0	-0.1	-0.4%	-2	-11
CSc1nc2c([nH]1)c(=S)n(C)c(=O)n2C	-2.0	2	0.1	-3.4%	-7	-3
NC(=O)C1(N2CCCCC2)CCN(C(=S)NC2CCCC2)CC1	1.8	6	0.1	2.5%	-10	0
COc1ccc(Cl)cc1NS(=O)(=O)c1cccc(C(=O)N2CC(C)OC(C)C2)c1 (stereo not given)	-0.6	22	-0.2	0.3%	-13	-4
O=C(c1ccccc1)c1cnc2ccc(Cl)cc2c1N1CCOCC1	-3.0	25	1.4	-0.1%	-1	1
CNC(=O)NC(=O)CN1C(=O)NC2(CCOc3ccccc32)C1=O (stereo not given)	0.3	33	0.4	3.1%	-5	3
COCC1OS(=O)(=O)NC(CC(=O)SC(C)(C)C)C1C (stereo not given)	-3.6	-6	-0.3	2.2%	-10	-6
Cc1cc(C)cc(NC(=O)CCn2cnc3cc(C)c(C)cc32)c1	2.4	-2	0.7	0.5%	-8	13
CN(C)CCCN(CCCNC(=O)/C=N/O)Cc1ccccc1	0.3	22	1.6	0.2%	-1	14
CCn1ncc(Br)c1C(=O)Nc1ccc(OC(F)(F)F)cc1	-6.0	-7	1.8	10%	-3	10
C=CCC[C@@H](Cc1ccc(F)cc1)C(=O)O[C@H](CNC(=O)[C@H](CC=C)CC(=O)N(CCO)Cc1ccccc1)c1ccccc1	-3.5	4	3.5	5.9%	-4	-1
CC(=O)N1CCc2cc(S(=O)(=O)CCC(=O)NCc3ccco3)ccc21	-0.2	3	5.0	1.6%	5	-2
COc1ccc(NC(=O)c2ccco2)cc1NC(=O)COc1ccc(C)cc1C	nt	38	0.7	4.1%	nt	nt
CCOc1ccc(CC(=O)Nc2c(C(=O)c3ccc(Cl)cc3)oc3ccccc23)cc1OCC	nt	-7	-0.4	1.4%	nt	nt
COc1cccc(NC(=O)Nc2ccc3nc(N4CCN(C)CC4)cc(C)c3c2)c1	nt	-4	-0.9	10%	nt	nt
CCN(C(=O)COC(=O)C1CCC(C(C)(C)C)CC1)c1c(N)n(Cc2ccccc2)c(=O)[nH]c1=O (stereo not given)	1.5	-3	-0.2	-1.9%	0	2
CCOC(=O)c1c(-c2ccccc2)csc1/N=C/C1C(=O)CCCC1=O	0.0	12	0.5	?	1	-17
CN(C)C(=O)c1cccn1-c1ncc(C(F)(F)F)cc1Cl	1.4	11	-0.1	0.3%	0	5
CCc1ccc(CNC(=O)c2cnc3sc(N4CCCC4)nn3c2=O)cc1	nt	12	-0.3	0.3%	nt	nt
CN(c1ccccc1C(=O)Nc1ccc(F)c(Cl)c1)S(C)(=O)=O	7.9	-29	1.7	-0.1%	0	10
CC1CN(CCCCOc2ccc(F)cc2)CC(C)O1 (stereo not given)	-7.2	-6	-0.5	-0.2%	-14	15
COc1cc(OC)c(OC)cc1/C=N/n1c(C)nnc1C	-2.8	0	-0.5	-0.8%	-25	16
CCCCC(=O)Nc1ccc2c(c1)oc1ccccc12	-0.4	-6	1.2	-2.5%	-7	6
O=C(CNc1cccc2ccccc12)N/N=C/C(Br)=C/c1ccccc1	4.2	8	0.7	nt	25	-3
CC1CC2C3CCC4=CC(=O)CCC4(C)C3CCC2(C)C1(O)C(=O)CO (stereo not given)	-0.3	-7	0.7	6.0%	3	6
C[C@]12C=CC(=O)C=C1CCC1C3CC[C@](O)(C(=O)CO)[C@@]3(C)CC3OC312 (stereo not given in full)	-4.7	-3	-0.4	3.2%	-2	-11
COc1ccn(C2CCCCO2)c(=O)n1 (stereo not given)	-1.2	29	0.2	-3.6%	-3	3
CC(C)CCNC(=O)CN1C(=O)c2cccnc2Oc2ccccc21	nt	13	1.6	-0.2%	nt	nt
C[C@@H]1CN([C@@H](C)CO)C(=O)c2cc(NC(=O)Nc3ccccc3)ccc2O[C@@H](C)CCCCO[C@H]1CN(C)C(=O)Nc1ccc(C(F)(F)F)cc1	-2.2	15	-0.7	1.4%	2	5
Cc1ccccc1OCCNc1cc(N2CCCCC2)ccc1[N+](=O)[O-]	-3.1	24	-0.2	1.3%	-17	?

Some of the entries so far, with two lines to a compound:
Values in the order – D2 agonist, TRPML1 inh, TRPML1 agonist, PINK1 expr mod, D2 PAM, Six1-Eya2 inh
O=C(O)CCn1c2c(c3ccccc31)CCCC2
→ -2.8, 1, -0.5, -1.2%, -6, -2
COCC1OS(=O)(=O)NC(CC(=O)SC(C)(C)C)C1C (stereo not given)
→ -3.6, -6, -0.3, 2.2%, -10, -6

(next part)
SMILES	D2 agonist	TRPML1 inh	TRPML1 agonist	PINK1 expr mod	D2 PAM	Six1-Eya2 inh
O=C(NN1C(=O)C2C3C=CC(C3)C2C1=O)c1ccncc1 (stereo not given)	0.7	6	1.5	-0.6%	0	3
N#Cc1ccccc1S(=O)(=O)N1CCN(C(=O)CCc2ccccc2)CC1	-1.9	2	-0.2	-0.5%	-4	3
CN(C(=O)c1cccc(Br)c1)C1CCS(=O)(=O)C1 (stereo not given)	0.4	-11	0.1	6.1%	3	8
O=C(O)Cc1sc(=O)[nH]c1O	-2.8	2	-0.2	0.5%	-5	7
COc1cc(-c2nnc(SCC(=O)N(Cc3ccccc3)C(C)(C)C)o2)cc(OC)c1OC	-1.6	-9	-0.5	nt	?	-15
Cc1cc(NC(=O)CCN2CCN(CCO)CC2)ccc1Br	0.3	-5	0.8	0.0%	-8	3
CCCN1CCC(=O)N([C@H](CSc2ccc(Br)cc2)c2ccccc2)CC1	-1.0	2	-0.6	2.3%	-16	-3
CC1CCCCN1C(=O)COC(=O)CNC(=O)c1sc2ccccc2c1Cl (stereo not given)	-1.3	3	0.1	-1.1%	12	1
Cc1ccc(-n2ncc(C(=O)NCCN3CCC(Cc4ccccc4)CC3)c2C2CCN(C(=O)OC(C)(C)C)CC2)cc1	nt	11	-0.4	-2.1%	nt	nt
